PABP FP inh: PABP-poly(A) binding inhibition. P11940. PABP-poly(A) RNA binding, fluorescence polarization. inhibition, % at 35 µM. 290,000 compounds, 1% hits;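 active = 50% or more with normal probe brightness, or confirmed in later tests; about a fifth of its hits are not listed in these tables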;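 also: calls also rest on retests at 20 µM and on dose response follow-up; controls were probe without protein and protein plus probe with vehicle; some compounds called inactive have numbers as strong as hits; many hits fall short of the cut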
Target sequence (P11940 whole entry, looked up): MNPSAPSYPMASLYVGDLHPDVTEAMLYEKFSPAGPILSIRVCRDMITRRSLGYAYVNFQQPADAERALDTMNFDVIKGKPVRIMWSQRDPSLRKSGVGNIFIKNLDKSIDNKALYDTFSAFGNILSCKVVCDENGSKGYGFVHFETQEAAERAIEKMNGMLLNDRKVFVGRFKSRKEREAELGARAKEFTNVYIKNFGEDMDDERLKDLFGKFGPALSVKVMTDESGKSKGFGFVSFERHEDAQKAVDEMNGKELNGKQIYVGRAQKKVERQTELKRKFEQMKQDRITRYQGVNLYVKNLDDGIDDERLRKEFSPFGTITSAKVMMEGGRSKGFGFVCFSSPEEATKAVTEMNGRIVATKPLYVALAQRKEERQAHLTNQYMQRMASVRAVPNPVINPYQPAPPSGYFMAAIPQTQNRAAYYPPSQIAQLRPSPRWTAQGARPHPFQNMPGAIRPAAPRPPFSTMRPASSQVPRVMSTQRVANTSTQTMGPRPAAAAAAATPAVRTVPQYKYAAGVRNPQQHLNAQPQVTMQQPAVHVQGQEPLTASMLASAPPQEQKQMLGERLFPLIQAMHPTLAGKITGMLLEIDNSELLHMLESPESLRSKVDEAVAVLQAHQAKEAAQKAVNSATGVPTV
MT1-MMP act inh: blocks activation of human MT1-MMP; P50281; HT1080 RFP-PRO-GFP cells, GFP/RFP ratio fluorescence, overnight; percent of plate control window, DMSO zero; GFP/RFP ratio change, % at 20 µM; 360,000 compounds, 0.061% hits;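 active = GFP/RFP ratio change of at least 30% with cell ATP level not reduced by more than half and red fluorescence within 50% of control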; also: strong numbers were not always called active
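Assay system – RFP-PRO-GFP reporter HT1080 cells · Compound dosing – single dose of 20 µM compound, 1% DMSO final · Incubation – overnight compound exposure at 37 °C · Measure – GFP/RFP fluorescence ratio · Benchmarks – DMSO wells and RFP-L50D-GFP cells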
Rce1 inhib: yeast Ras-converting enzyme inhibition; Q03530; yeast membranes, quenched prenylated peptide cleavage fluorescence; calls only; 290,000 compounds, 0.27% hits; AID 2563;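 active = fall in fluorescence gain of 50% or more versus controls, with final raw signal at or below 3038400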;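 also: plate controls were neutral control wells for no effect and wells lacking membranes for full effect; tested at 10 µM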
Target sequence (Q03530 whole entry, looked up): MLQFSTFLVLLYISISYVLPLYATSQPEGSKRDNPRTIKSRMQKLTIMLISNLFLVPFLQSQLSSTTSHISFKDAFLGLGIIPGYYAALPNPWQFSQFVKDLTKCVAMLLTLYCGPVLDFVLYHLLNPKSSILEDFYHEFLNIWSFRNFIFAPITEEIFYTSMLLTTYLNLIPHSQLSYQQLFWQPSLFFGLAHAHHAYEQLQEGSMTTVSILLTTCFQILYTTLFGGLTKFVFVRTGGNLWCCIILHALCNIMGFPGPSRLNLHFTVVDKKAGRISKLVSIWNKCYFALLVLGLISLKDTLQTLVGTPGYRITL
UUG fidelity: modulators of start codon recognition fidelity in yeast; S. cerevisiae UUG-firefly luciferase reporter, luminescence/redox ratio; activity score, % at 18.7 µM; 350,000 compounds, 0.13% hits; AID 602363;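 active = replicate mean at a twofold rise or more, about +100% in these data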;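 also: firefly luciferase made from a UUG start codon reports start codon fidelity; reporter light over untreated wells divided by growth signal over untreated wells; some hits fall short of that in this replicate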
Env fusion inh: blocks HIV Env-driven cell-cell fusion | HeLa-JRFL Env/CEM21 cell fusion, luciferase | inhibition, % at 12.3 µM | 360,000 compounds, 1.1% hits;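 active = mean replicate inhibition score of at least 50 and every replicate individually at or above 50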;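 also: 0% = plate neutral controls and 100% = maraviroc near 300 nM; one replicate is shown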
eIF4H inh: inhibitors of RNA binding by human eIF4H; Q15056; AID 2012; 290,000 compounds, 0.94% hits; eIF4H fluorescence polarization binding assay; inhibition, % at 35 µM;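 active = 50% or more with normal probe brightness, or confirmed in later tests; about a fifth of its hits are not listed in these tables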;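 also: calls also rest on retests at 20 µM and on dose response follow-up; 0% = protein and probe with vehicle and 100% = probe without protein; strong numbers were not always called active; many hits fall short of the cut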
CSC inhib: blocks cancer stem cells; inhibition, % at 7.5 µM; AID 2717; 300,000 compounds, 1.1% hits; cancer stem cell-like cells viability, luminescence;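 active = mean at 75% or more and at least half the replicates too; tested in HMLE shEcad cells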;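 also: 0% = median of negative and 100% = median of positive control wells; the first replicate is given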
MT1-MMP act inh RFP: recorded beside MT1-MMP act inh, whose call it bears; RFP signal change, %; measured here: RFP expression control read;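 0 = vehicle wells; hits needed this value within 50% of zero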
Active calls of the source: *; i = inactive; · = no result given; & = joins results of further samples; [ ] = dose if it differs, or a comment. Some of the compounds tested; rates above refer to the full screens.

SMILES	PABP FP inh	MT1-MMP act inh	MT1-MMP act inh RFP	Rce1 inhib	UUG fidelity	Env fusion inh	eIF4H inh	CSC inhib
COCCN(C(=O)CC1C(=O)NCCN1CC(c1ccccc1)c1ccccc1)C(C)C (configuration not stated)	16	4	-8	i	·	5	-2	-1
CC1(C)CC(=O)c2sc(NS(=O)(=O)c3ccc(Cl)cc3)nc2C1	20	0	5	i	·	-2	0	-14
CC#CC(=O)N1CCC(CO)(CCc2ccccc2)CC1	2	-8	1	i	-12	12	1	6
O=C(CSc1nnc(NC(=O)C2CCC2)s1)Nc1ccccc1F	4	3	2	i	-16	-12	4	-13
COc1ccc(NC(=O)N2CCNC(=O)C2CC(=O)Nc2ccc(F)cc2)cc1 (configuration not stated)	4	-2	1	i	-13	-19	-3	2
COc1ccccc1OCC(=O)Nc1ccc(C(=O)Nc2ccccc2C(=O)O)cc1	·	0	2	·	-14	-2	·	·
COc1ccc2c(c1OC)C(=O)N1c3ccccc3C(=O)N(c3ccccc3)C21 (configuration not stated)	-2	-4	-4	i	15	·	-11	16
Cn1c(=O)c2[nH]c(C3CCCC3)nc2n(C)c1=O	·	1	2	i	-10	8	·	-8
COc1ccccc1CNCc1ccc2c(c1)OCO2	·	3	4	·	-9	-14	·	·
CC(C(=O)Nc1cccnc1)c1ccc([N+](=O)[O-])cc1 (configuration not stated)	1	·	·	i	·	-12	4	-5
O=C1C=C(c2cnc3ccccc3c2)C[C@@H](c2ccc3c(c2)OCO3)C1	·	-2	-3	·	-13	-9	·	-1
Cc1ccc(-c2nc3c(Cl)cc(C(F)(F)F)cn3c2Cc2ccccc2)cc1	·	2	1	·	-7	-9	·	·
CC1(C)CC(=O)c2c(S(C)(=O)=O)sc(Br)c2C1	-6	7	-2	·	·	10	-7	10
CCOC(=O)/C=C/C(=O)OCC(=O)Nc1c(Cl)cccc1Cl	5	-1	-3	i	-14	17	5	3
CN(C)CCN1CCN(C2CN(C3CCCCC3)S(=O)(=O)C2)CC1 (configuration not stated)	·	-1	3	·	10	-18	·	·
CCOc1ccccc1Nc1cc(C)nc2ccc(C)cc12	·	1	-2	i	-9	25	·	10
O=C(CC(c1ccccc1)c1ccccc1O)NCc1ccccc1Cl (configuration not stated)	2	-10	-10	i	-24	-7	-6	4
NC(=O)c1ccsc1NC(=O)COC(=O)CCc1ccccc1	·	1	1	·	-13	-8	·	·
COc1ccc(N=Nc2c(N)n[nH]c2N)cc1	-11	0	2	i	-23	-22	6	16
C=CCOC(=O)c1cc(-c2ccc(/C=C3\C(=O)NC(=O)C(C#N)=C3C)o2)ccc1Cl	51*	-26	11	·	-2	-196	71*	·
Nc1nc(=S)n(-c2ccccc2)[nH]1	6	1	1	i	·	-4	3	-2
COc1ccc(C(=O)NN=C2CCCC2)c(OC)c1	-3	3	3	i	-10	-12	-5	-9
CCOC(=O)N1CCN(C(=O)CN(c2ccc(C)c(C)c2)S(=O)(=O)c2ccccc2)CC1	5	-3	2	·	7	-141	0	-13
CCC(C)NC(=O)c1ccccc1NS(=O)(=O)c1ccc(OC)c(OC)c1 (configuration not stated)	-7	-1	0	i	-32	·	-12	-3
CCc1ccccc1N1C(=O)CN(Cc2cc(OC)c(OC)c(OC)c2)C1=S	-6	-3	-4	i	3	6	-6	8
CC(C)(C)NC1=NCCNC(c2ccccc2)=C1	·	6	1	·	13	-11	·	·
CC(C)(CO)Nc1ncnc2onc(-c3ccc(F)cc3)c12	74*	-4	-2	i	65	5	92*	-13
Cc1cc(NC(C)c2ccccc2)n2ncc(-c3ccccc3)c2n1 (configuration not stated)	-8	7	-1	i	2	-2	-8	24
COC(=O)c1cnc(SCC(=O)c2ccccc2)n1C	0	-3	-1	i	-33	-24	-7	4
C=C1CCN(c2ccc(C(=O)NCCC)cc2[N+](=O)[O-])CC1	·	2	-1	i	-5	-30	·	6
O=C(CNCC1CCCO1)NCc1ccco1 (configuration not stated)	10	4	-7	i	·	9	2	-1
Cc1oc2c(CN3CCCCC3)c(O)ccc2c(=O)c1-c1ccc(Br)cc1	-17	-2	-1	i	-14	-4	0	-1
O=C(Nc1ccc2c(c1)C(=O)N(c1ccccc1)C2=O)C1CCCO1 (configuration not stated)	3	-2	4	i	-6	25	-16	-13
O=C(CN1C(=O)C2C3C=CC(C3)C2C1=O)Nc1ccc(C(=O)O)cc1 (configuration not stated)	-1	-2	-3	i	3	-22	5	9
CSc1nnc(-c2ccc(S(=O)(=O)N3CCOCC3)cc2)n1CC1CCCO1 (configuration not stated)	3	-4	2	i	-17	-6	8	-13
COc1ccc2[nH]c3c(=O)n(N)c(C)nc3c2c1	-2	1	0	i	6	-7	-4	·
CCOC(=O)c1sc(NC(=O)C(C)(C)C)cc1C	-6	2	1	i	-20	-34	-11	-6
CN(C)C(/C=C/Nc1cccc(Br)c1)=C(C#N)C#N	1	1	2	i	·	-42	2	16
CC(C)(C)C(=O)NCCCc1ccccc1	1	3	4	i	-17	·	-6	11
COc1cc(-c2nnc(SCC(=O)N3CCCC3)o2)cc(OC)c1OC	-1	4	2	i	-15	·	4	0
CC(C)c1ccc(OCC(=O)Nc2cccc(C(=O)Nc3ccccc3C(=O)O)c2)cc1	8	4	-1	i	·	0	4	-4
CCOC(=O)c1c(C)n(C)c2ccc(OCC(O)CNC(CC)CO)cc12 (configuration not stated)	5	4	3	i	·	·	2	-5
O=C(NNC(=O)c1sc2cccc(Cl)c2c1Cl)NC1CCCCC1	-4	4	0	i	-11	·	2	4
Cc1ccc(NC(=O)c2ccc3c(c2)OCCO3)cc1S(=O)(=O)Nc1cccc(Cl)c1	4	1	-18	i	-17	·	-8	32
Cc1ccc(SCC(=O)NC(=O)c2ccccc2Br)c(C)c1	·	2	3	·	-2	-2	·	-4
CC1(Cc2ccccc2C#N)C(=O)Nc2cc(-c3ccccc3Cl)ccc21 (configuration not stated)	·	-11	-15	·	-10	57*	·	·
Cn1c(=O)c2c(nc(NC(Cc3ccccc3)C(=O)O)n2Cc2ccccc2)n(C)c1=O (configuration not stated)	-8	-6	-1	i	12	·	-4	19
COc1ccc(OC)c(N(CC(=O)N2CCC(C)CC2)S(=O)(=O)c2ccc(OC)c(OC)c2)c1	-7	4	4	i	-4	-153	3	-2
COc1ccccc1N1CCN(S(=O)(=O)c2ccc3c(c2)oc(=O)n3C)CC1	10	1	3	i	8	-15	16	-7
CN1CCN(C(=O)C2=C[C@H](c3ccc(C(F)(F)F)cc3)C[C@H](OCc3ccc(CO)cc3)O2)CC1	10	-5	-6	i	14&18	-3[16.7 µM]	-1	-6
Cc1cccc2nc(-c3ccccc3)nc(N[C@@H](CO)c3ccccc3)c12	6	-1	-15	i	7	29	-14	52
O=C(Nc1ccccc1F)c1ccc2ncsc2c1	-6	-5	-2	i	-20	-43	-1	·
COc1c2c(c(C)c3c1C(=O)OC3)O[C@@]1(C)CC[C@@]3(O)C(C)(C)OC(=O)CC[C@]3(C)[C@H]1C2	34	-2	8	i	-18	·	43	-11
CCOC(=O)/C=c1\s/c(=C\c2ccc(C#N)cc2)c(=O)n1CC(=O)NCc1ccco1	4	4	2	i	·	-8	9	-7
CSc1nnc(-c2ccco2)c(-c2ccco2)n1	94*	1	2	i	-8	-4	97*	1
CCNc1ccc(C(=O)OCC(=O)NC(C)c2ccccc2)cc1[N+](=O)[O-] (configuration not stated)	-2	4	-1	i	-14	4	-10	19
Cn1c(SCC(=O)N2CCCC2=O)nc2ccccc21	-7	2	3	i	·	-1	1	-2
Cc1ccccc1N(Cc1nnc2n1CCCCC2)C(=O)Nc1ccccc1	-8	-2	0	i	-10	·	-4	·
O=C(c1cnc(Cc2c[nH]c3ccccc23)c(I)c1)N1CCCCC1	·	0	-8	·	16	-1	·	·
Cc1ccc(-c2cc3nc4c(c(=O)n3[nH]2)CCCC4)cc1	·	-5	1	i	-4	·	·	-5
The list continues.
SMILES	PABP FP inh	MT1-MMP act inh	MT1-MMP act inh RFP	Rce1 inhib	UUG fidelity	Env fusion inh	eIF4H inh	CSC inhib
COc1ccc2cc(CCNC(=O)c3cc4ccccc4o3)c(=O)[nH]c2c1	-1	0	-1	i	-1	-8	-22	-3
Cc1cn2c(=O)c(C(=O)N3CCN(c4ccccc4)CC3)cnc2s1	·	5	2	i	-11	-2	·	8
CN(C(=O)c1ccc(NC(=O)Cc2ccccc2)cc1)c1ccccc1	-3	3	2	i	-11	-48	-9	8
COc1ccc(S(N)(=O)=O)cc1C(=O)NCCCN1CCN(c2ccc(C)cc2)CC1	2	-2	1	i	-3	·	2	-6
O=C(Nc1ccc(F)cc1)c1ccc2c(=O)n(CC3CCCO3)c(=S)[nH]c2c1 (configuration not stated)	14	1	-22	i	-20	5	2	-15
CCc1nc2c(nnn2Cc2ccc(F)cc2)c(=O)[nH]1	-5	17	4	i	9	·	-3	-1
Cc1ccc(C(=O)N2CCN(S(=O)(=O)c3ccc(C)c([N+](=O)[O-])c3)C2)cc1	-3	-6	-7	i	·	-7	8	-3
NCCCC[C@@H](C(=O)NCCCCCCCCCCC(=O)N1CCNCC1)n1cc(CCCC(=O)O)nn1	·	2	2	i	17	·	·	-4
CN(C)c1ccc(Nc2cc(Cl)ncn2)cc1	0	0	0	i	-5	-30	-13	-1
Cn1c(=O)c2c(nc(NCCCO)n2CCc2ccccc2)n(C)c1=O	-2	2	2	i	-3	-4	-4	-15
Cc1cc(NS(=O)(=O)c2ccc(NC(=O)COc3ccccc3Cl)cc2)no1	7	-1	5	i	0	-5	-5	-5
O=S1(=O)[C@H]2C[C@@H]3CC[C@]2(CN1Cc1cccc(F)c1)O3	-3	0	2	i	-9	-3	-11	-11

3 of the entries above in order of their number in MT1-MMP act inh RFP, low to high.
Structure | MT1-MMP act inh | MT1-MMP act inh RFP | Rce1 inhib | UUG fidelity | Env fusion inh
CC1(C)CC(=O)c2c(S(C)(=O)=O)sc(Br)c2C1 | 7 | -2 | · | · | 10
COc1cc(-c2nnc(SCC(=O)N3CCCC3)o2)cc(OC)c1OC | 4 | 2 | i | -15 | ·
COc1ccc(OC)c(N(CC(=O)N2CCC(C)CC2)S(=O)(=O)c2ccc(OC)c(OC)c2)c1 | 4 | 4 | i | -4 | -153

More records.
SMILES	PABP FP inh	MT1-MMP act inh	MT1-MMP act inh RFP	Rce1 inhib	UUG fidelity	Env fusion inh	eIF4H inh	CSC inhib
Cc1nn(C)c(C)c1CN(C)C(=O)c1cc2n(n1)C(C(F)(F)F)CC(c1cccs1)N2 (configuration not stated)	-4	-24	-23	i	-7	·	-7	2
COc1cccc(CNC(=O)CCC2CCCN(C(=O)c3ccccc3N(C)C)C2)c1 (configuration not stated)	2	-1	-4	i	-1	7	-13	-8
Cc1ccc(NC(=O)COC(=O)c2ccccc2-c2nc3ccccc3s2)c(C)c1	0	-5	-4	i	·	15	2	7
O=C(Cn1cnc2c(nnn2Cc2ccc(F)cc2)c1=O)Nc1ccccc1	3	-2	0	i	-13	7	2	6
Fc1ccc2[nH]c3c(NCc4ccccc4)ncnc3c2c1	3	18	-30	i	-13	22	-6	45
NNc1nc2c(F)cc(F)cc2s1	6	4	-8	i	-21	-39	16	14
O=C(Nc1cc2c(cc1[N+](=O)[O-])OCCO2)c1cccnc1	·	-11	2	·	-6	·	·	-16

Reprinted at random: 5 entries already listed.
SMILES	PABP FP inh	MT1-MMP act inh	MT1-MMP act inh RFP	Rce1 inhib	UUG fidelity	Env fusion inh	eIF4H inh	CSC inhib
Fc1ccc2[nH]c3c(NCc4ccccc4)ncnc3c2c1	3	18	-30	i	-13	22	-6	45
Cc1ccc(NC(=O)COC(=O)c2ccccc2-c2nc3ccccc3s2)c(C)c1	0	-5	-4	i	·	15	2	7
NNc1nc2c(F)cc(F)cc2s1	6	4	-8	i	-21	-39	16	14
Cc1nn(C)c(C)c1CN(C)C(=O)c1cc2n(n1)C(C(F)(F)F)CC(c1cccs1)N2 (configuration not stated)	-4	-24	-23	i	-7	·	-7	2
COc1cccc(CNC(=O)CCC2CCCN(C(=O)c3ccccc3N(C)C)C2)c1 (configuration not stated)	2	-1	-4	i	-1	7	-13	-8
